# ClpP mod: qHTS Assay for Activators of ClpP. Potency, µM (top dose mostly 57.5 µM), for the others: at the top dose activity change, negative = active. purified B. subtilis ClpP, FRET peptide cleavage, 20 min. 1.9% of 340,000 active. AID 651965, 2013. ATP-dependent Clp protease proteolytic subunit (Bacillus subtilis (strain 168)), P80244; active = well fitted falling curve with a large enough effect; inconclusive = small, poorly fitted or top-dose-only effect; inactive = no such curve, though single readings can be large or run the other way; also: potency is read from the fitted curve at half-maximal effect; the source files actives as falling curves though it sought activators and does not explain the sign; nearly all actives have a fitted effect of over 65% in size; many hits overshoot -100%
# Target sequence (P80244 whole entry, looked up): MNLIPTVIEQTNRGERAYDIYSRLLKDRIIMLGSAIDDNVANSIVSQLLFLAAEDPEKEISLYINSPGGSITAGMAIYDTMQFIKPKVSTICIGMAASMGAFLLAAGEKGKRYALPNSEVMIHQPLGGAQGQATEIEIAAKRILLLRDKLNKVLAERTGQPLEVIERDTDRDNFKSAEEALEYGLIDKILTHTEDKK
#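 ClpP 10 microg/mL final, pH 8 Tris/KCl buffer with BSA, glycerol, Tween-20; compound pinned in; FRET-FV substrate; RT 20 min; Ex320/Em430; ΔFRET vs ADEP 5.8 microM, DMSO, no enzyme.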
# TRPV1 potentiator: potentiators of human vanilloid receptor 1 (TRPV1). TRPV1-expressing cells, Fluo-8 calcium influx, capsaicin EC20 potentiation; host cell line not named in the record; control for the full effect not named in the record. 0.02% of 320,000 active. AID 540277. potentiation, % at 8.33 µM; active means potentiation above 80%; inconclusive means 30% to 80%; inactive means below 30%; also: 0% is about no effect
# Target sequence (Q8NER1 whole entry, looked up): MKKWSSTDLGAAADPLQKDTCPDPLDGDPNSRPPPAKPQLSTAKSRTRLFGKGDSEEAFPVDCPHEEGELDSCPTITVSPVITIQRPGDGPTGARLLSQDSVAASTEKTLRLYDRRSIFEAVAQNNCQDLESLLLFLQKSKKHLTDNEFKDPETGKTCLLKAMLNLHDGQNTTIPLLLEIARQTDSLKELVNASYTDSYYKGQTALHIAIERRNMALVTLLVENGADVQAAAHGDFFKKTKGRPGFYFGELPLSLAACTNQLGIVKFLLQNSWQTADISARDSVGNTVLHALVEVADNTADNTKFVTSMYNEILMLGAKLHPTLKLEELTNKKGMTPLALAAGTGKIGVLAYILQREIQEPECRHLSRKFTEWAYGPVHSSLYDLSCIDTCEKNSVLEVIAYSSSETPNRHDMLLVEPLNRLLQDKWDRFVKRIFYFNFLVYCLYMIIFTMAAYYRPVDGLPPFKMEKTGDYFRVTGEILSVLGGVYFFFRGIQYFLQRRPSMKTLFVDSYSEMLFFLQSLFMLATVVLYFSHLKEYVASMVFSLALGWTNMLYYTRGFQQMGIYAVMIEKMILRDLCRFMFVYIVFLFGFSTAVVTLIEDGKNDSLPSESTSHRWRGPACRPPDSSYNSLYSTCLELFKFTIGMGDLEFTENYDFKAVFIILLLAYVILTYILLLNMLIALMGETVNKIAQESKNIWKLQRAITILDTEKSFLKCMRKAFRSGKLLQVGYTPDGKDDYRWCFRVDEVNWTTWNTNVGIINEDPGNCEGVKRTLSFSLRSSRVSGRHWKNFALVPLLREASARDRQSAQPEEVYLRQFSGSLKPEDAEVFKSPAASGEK
#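 Cells expressing TRPV1 were dye-loaded with Fluo-8 and read kinetically: 10 s baseline, 3 min after compound (agonist portion), then 2 min after EC20 capsaicin (allosteric enhancer portion). Calcium-bound dye fluorescence at 480/520 nm.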
# Menin MLL FP FL: menin-MLL binding inhibition, fluorescein peptide; 290,000 tested, under 10 active; AID 1766; Fluorescence polarization, fluorescein-MLL peptide displacement from menin; FP activity change, % at 61.4 µM; inconclusive = falling polarisation curve, or a change in total fluorescence; inactive = total fluorescence flat and polarisation flat or rising; no compound was filed as active; the % refers to the polarisation; negative = inhibition;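 also: % of control where 0% means no effect; inhibitors lower the polarisation; unlabelled MLL peptide was the positive control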
# gsp antagonist: gsp mutant antagonism; 0.4% of 340,000 active; AID 624288; gsp-mutant cells, cAMP HTRF, 30 min; control for the full effect not named in the record; Potency, µM (titrated, usually from 76.9 µM), without a hit: at the highest dose activity change, negative = inhibition, most hits filed as inhibitors; active = falling curve of any shape with a large fitted effect; inconclusive = falling curve, mostly with a smaller effect; inactive = flat or rising curve; cell line not stated here;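 also: intracellular cAMP measured with PDE inhibitor Ro 20-1724 present during compound exposure; potency is read from the fitted curve at half-maximal effect; % is scaled to controls: 0 for no effect and ±100 for the full control effect; nearly all actives have a fitted effect of over 65% in size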
#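 HTRF cAMP measurement after 30 min RT detection following 30 min, 37C compound treatment alongside […] (added as 300 uM solution) in G418-selected cells seeded at 2000/well and grown 16–24 h.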
# Sfp inh: inhibitors of Bacillus subtilis Sfp phosphopantetheinyl transferase | 3.5% of 310,000 active | Q9F4F7 | Biochemical Sfp PPTase activity, qHTS | AID 1490 | Potency, µM, for the others: max response, negative = inhibition, usual class: inhibitors; active = well fitted inhibition curve with a large enough effect; inconclusive = small, poorly fitted or top-dose-only effect, or another doubt; inactive = no such curve, though single readings can be large or run the other way;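 also: the enzyme is Sfp with the accession as filed and its product quenches rhodamine fluorescence; potency is read from the fitted curve at half-maximal effect; 0% = enzyme reaction without inhibitor and -100% = no enzyme wells; top concentration of the series not given in the record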
#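 Sfp 15 nM + cpd, 15 min RT; start w/ rhodamine-CoA 5 uM, BHQ-2-YbbR 12.5 uM (final); 50 mM Hepes pH 7.6, 10 mM MgCl2, 0.01% NP-40, 0.01% BSA; read 525/598 nm at 0 and 30 min.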
# gsp ag: gsp mutant agonism | Potency, µM (top dose mostly 76.9 µM), inactives show at the highest dose activation (cAMP increase), hits mostly activators | gsp mutant cells, cAMP HTRF, 30 min; control for the full effect not named in the record | 0.13% of 340,000 active; active = well fitted activation curve with a large enough effect; inconclusive = small, poorly fitted or top-dose-only effect, or another doubt; inactive = no such curve, though single readings can be large or run the other way; cell line not stated here;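 also: phosphodiesterase inhibitor Ro 20-1724 added with compounds to block cAMP breakdown; potency is read from the fitted curve at half-maximal effect; nearly all actives have a fitted effect of over 60% in size; about a fifth of the inactives were tested at one dose only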
#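 Cells stably selected in G418 were plated at 2000/well, grown 16-24 hr, then given compounds in DMSO with the PDE inhibitor […] (300 uM solution added) for 30 min at 37C; cAMP was read by HTRF.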
# CtBP-E1A inh: blocks the CtBP interaction with E1A | AlphaScreen GST-E1A/His-CtBP binding, 1536-well; active compounds read low; control for the full effect not named in the record | 0.49% of 340,000 active | activity change, % (test concentration not listed); in the data active means activity change below about -65%; inconclusive means about -30% to -65%; inactive means above about -30%; also: % is scaled to controls: 0 for no effect and ±100 for the full control effect
#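 GST-E1A and His-tagged CtBP (125 nM each as 5X stock) were preincubated with pin-transferred compound for 2 h at 37 °C in the dark, then glutathione donor and nickel acceptor beads were added for 1 h before AlphaScreen reading.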
# An asterisk follows results filed as active; ? = inconclusive; / = not tested or not shown; & = joins results of further samples; [ ] = remark or other dose.
structure	ClpP mod	TRPV1 potentiator	Menin MLL FP FL	gsp antagonist	Sfp inh	gsp ag	CtBP-E1A inh
COc1ccc(-c2noc(-c3cccc(OC)c3OC)n2)cc1OC	-14%	-9	2.2	?	15%	?	5
COC(CNS(=O)(=O)c1ccc(S(=O)(=O)N2CCCC2)cc1)OC	-0.8%	1	-1.0	3%	7%	1%[15.4 µM]	-10
CC(C)CN1CCC(=O)N([C@H](CSc2ccccc2)Cc2ccccc2)CC1	-2.6%&-0.1%	-10	0.8	-18%	5%	/	-7
CN(c1ccccc1)c1nc(N)c([N+](=O)[O-])c(Nc2cccc(F)c2)n1	0.6%	2	0.9	-3%	14%	14%	-15
COC(=O)c1cc(C)nc(N)c1C#N	32%	5	-0.7	6%	11%	2%	3
COc1cccc(N=c2oc3c(C)ncc(CO)c3cc2C(N)=O)c1	-2.5%	-6	5.6	16%	12%	15%	?
Cc1c(Cl)cccc1NC(=O)NN1CCN(C)CC1	-2.5%	14	1.2	-5%	11%	-34%	0
Cc1ccc(N2C(=O)C3C(C2=O)C(C(=O)c2ccc(Cl)cc2)N2CCCC32)cc1 (stereo not given)	0.3%	-45	?	7%	?	?	-2
Cc1ccc(/C=N/NC(=S)NCCc2ccccc2)s1	25%	6	-0.6	7%	24%	-20%	6
COC(=O)c1cc(C(=O)OCC(=O)N(C)C2CCS(=O)(=O)C2)cc([N+](=O)[O-])c1 (stereo not given)	/	7	-0.5	-5%	21%	2%[15.4 µM]	2
COc1cccc(-n2nnnc2SCC(=O)Nc2ccc(NC(C)=O)cc2)c1	/	5	-0.6	0%	-3%	-3%	-12
CS(=O)(=O)N(CC(=O)Nc1cc(Cl)ccc1Cl)c1ccccc1	-0.8%	-7	-3.1	7%	8%	-12%	13
COc1ccccc1NC(=O)N1CCN(c2ccnc3cc(Cl)ccc23)CC1	-1.1%	10	-0.5	35µM*	7%	-3%[15.4 µM]	-14
O=[N+]([O-])c1ccccc1N/N=C\c1ccccc1F	/	-5	4.3	4%	5%	25%[15.4 µM]	-20
CCOc1ccccc1N(CC(=O)NCc1ccccc1)C(=O)CCC(=O)Nc1cc(C)ccn1	/	-6	-4.6	9%	-2%	-27%	0
COc1ccc(-c2ccc(CO)o2)cc1N	/	-4	7.7	/	?	-4%[15.4 µM]	2
CCCCN(CCCC)CCCNC(=O)CC1Oc2ccc(C)cc2NC1=O (stereo not given)	-1.5%	0	-0.3	11%	8%	-11%	1
CC(C)n1c2ccccc2c2cc([N+](=O)[O-])ccc21	0.9%	-14	4.6	-7%	-5%	1%	-6
CCCC1NC(=O)c2cccnc2-n2c1nc1cc(F)c(F)cc1c2=O (stereo not given)	-5.8%	/	/	/	/	-3%	0
CN1C(=O)Cc2cc(S(=O)(=O)NCCc3ccccc3)ccc21	-4.4%	-2	-2.8	10%	1%	-4%	-3
CCC(C)(C)NC(=O)C(c1cccc(OC)c1)N(C(=O)c1ccn[nH]1)c1cccc(OC)c1 (stereo not given)	-1.1%	-10	3.3	-10%	15%	28%	5
CC(=O)NC(CCS(C)(=O)=O)C(=O)Nc1ccc2c(c1)OCO2 (stereo not given)	1.2%	1	16	9%	7%	3%	-6
CCn1c(=NC(=O)C2COc3ccccc3O2)sc2c(C)ccc(OC)c21 (stereo not given)	4.2%	3	-1.2	-11%	-9%	15%	-17
CC(Sc1nc(-c2ccccc2)cc(C(F)(F)F)n1)C(=O)NCc1ccco1 (stereo not given)	0.4%	-13	2.8	-5%	-3%	18%	0
CCCCC(=O)Nc1sc2c(c1C#N)CC(C)(C)OC2	1.0%	-3	5.6	16%	9%	0%[15.4 µM]	7
C=CCn1c(=N)n(CC(O)COc2ccccc2OC)c2ccccc21 (stereo not given)	-1.7%	/	2.8	10%	22%	-51%[inhibitor]	1
COc1ccc(S(=O)(=O)NCc2ccccn2)cc1C	-1.2%	/	/	/	/	-9%	4
Cc1ccc(NC(=O)CSc2nc3ccccc3c(=O)n2CCCN2CCCCC2)cc1C	0.1%	2	4.6	15%	-7%	-14%	-9
CCn1nc(C(=O)OC2CCOC2=O)c2ccccc2c1=O (stereo not given)	-4.9%	-3	4.9	15%	8%	-6%	15
NC(=O)COC(=O)c1cc(-c2cccs2)nn1-c1ccccc1	-0.7%	3	-2.8	24%	14%	?	9

# (continued)
structure	ClpP mod	TRPV1 potentiator	Menin MLL FP FL	gsp antagonist	Sfp inh	gsp ag	CtBP-E1A inh
O=C(CN1CCOCC1)NCC12CC3CC(CC(C3)C1)C2	-0.7%	-1	-0.3	-1%	14%	-4%	5
COC(=O)CN1C(=O)N/C(=C/c2ccc(OC)cc2)C1=O	/	-12	-1.2	-13%	18%	-1%[15.4 µM]	0
COC(=O)c1cc(-c2ccc(OC)cc2F)nc2nc(SC)[nH]c(=O)c12	/	24	-0.2	-24%	13%	?	-1
CC(C)(C)n1[nH]c2c3c(ccc2c1=O)C(=O)c1ccccc1C3=O	-0.2%	-15	4.5	-27%	15%	0%	-15
CCCCNC(=O)CSc1nc2ccccc2c(=O)n1Cc1ccc2c(c1)OCO2	-0.1%	2	0.7	24%	14%	0%	-3
S=c1[nH]c2ccc(Cl)cc2s1	-1.6%	6	4.0	-18%	-4%	?	/
O=C(Nc1cc(Cl)ccc1-n1cncn1)c1cc(F)c(F)c(F)c1F	-1.3%	-23	/	-18%	/	2%[15.4 µM]	6
CC(C)(C)SCCNC(=O)/C=C/c1ccc(F)cc1	1.2%	-39	0.6	15%	-7%	-18%	-13
CC1CN(C(=O)c2cn3ccccc3n2)CC(C)O1 (stereo not given)	-25%	9	4.8	2%	9%	-4%	0
COc1ccc(Cl)cc1C(=O)NN=C1CCCC1	-0.8%	/	/	-1%	/	0%[15.4 µM]	-2
Cc1ccccc1NS(=O)(=O)c1cc(C(=O)Nc2cccc(N(C)S(C)(=O)=O)c2)ccc1C	1.7%	-10	-1.0	-29%	14%	18%	-1
CN(C)S(=O)(=O)c1cccc(C(=O)NCc2cccs2)c1	-3.3%	4	7.0	3%	10%	10%	-2
CCOc1ccc2nc(NC(NC(C)=O)(C(=O)OC)C(F)(F)F)sc2c1 (stereo not given)	-2.7%	14	4.3	0%	3%	1%	1
C/C(=N\NC(=O)c1c(Cl)c(C)nn1C)c1ccc(NC(=O)c2ccncc2)cc1	-10%	-29	13	-1%	1%	0%	-1
CCCN(CCC)CCNC(=O)CCC(=O)Nc1ccc2nc(N3CCOCC3)cc(C)c2c1	0.9%	4	-9.2	3%	0%	-31%[15.4 µM]	-9
CCOc1ccccc1C=Nc1ccccc1C(=O)Nc1ccccc1	-3.4%	-21	1.4	7%	-5%	-5%	2
Cc1ccccc1NS(=O)(=O)c1csc(C(N)=O)c1	-1.0%	-20	-2.8	4%	5%	-2%	7
COC(=O)NCC12CC3CC(C1)CC(CNC(=O)OC)(C3)C2	-5.5%	8	2.1	12%	15%	8%	1
O=[N+]([O-])c1ccc(/C=N/n2c(CO)nc3ccccc32)s1	-1.1%	-8	?	7%	12%	-2%	3
NC(=O)CC[C@@H]1NC(=O)C(Cc2ccc(O)cc2)NC(=O)c2cc([N+](=O)[O-])cc(F)c2NCCC[C@@H](C(N)=O)NC1=O (stereo not given in full)	/	0	2.0	/	-28%	/	/
CC1CCN(S(=O)(=O)c2cccc(C(=O)O)c2)CC1	-2.2%	2	1.8	-14%	20%	12%	4
O=C(Nc1ccc(OCC(=O)N2CCOCC2)cc1)c1ccccc1Cl	-0.8%	-22	/	5%	10%	5%[15.4 µM]	1
Cc1ccc(N(CC(N)=O)C2SC(=O)N(Cc3ccccc3)C2=O)cc1 (stereo not given)	1.6%	7	3.1	-8%	-1%	2%	2
CC(C(=O)OCC(=O)Nc1cccc(S(=O)(=O)N2CCOCC2)c1)N1C(=O)c2ccccc2C1=O (stereo not given)	/	8	1.4	-8%	10%	13%	2
O=C(c1ccc2c(c1)OCO2)N1CCN=C1SCc1cccnc1	-1.0%	-2	0.1	-6%	-15%	-15%	2
O=C(Cn1cnc2c(cnn2-c2ccc(F)cc2)c1=O)N1CCN(c2ccccc2F)CC1	-8.1%	-16	2.1	-2%	5%	10%	-5
CCOC(=O)c1ccc(N=C2SC(C(=O)NC)CC(=O)N2Cc2ccc(F)cc2)cc1 (stereo not given)	0.2%	-7	-3.9	13%	0%	17%[15.4 µM]	9
CC1CCCCN1S(=O)(=O)c1ccc(NC(=O)c2ccco2)cc1 (stereo not given)	0.3%	-12	1.6	-5%	17%	-10%	0
CC(=O)Nc1ccc(Nc2nc(-c3cc4ccccc4oc3=O)cs2)cc1	-0.5%	-2	?	?	-7%	-2%[15.4 µM]	-6
CCOC(=O)N/N=C/c1cccc(Cl)c1Cl	-0.8%	-11	4.7	4%	9%	15%	15

# Random excerpt: two compounds from above
structure	ClpP mod	TRPV1 potentiator	Menin MLL FP FL	gsp antagonist	Sfp inh	gsp ag	CtBP-E1A inh
CCOc1ccc2nc(NC(NC(C)=O)(C(=O)OC)C(F)(F)F)sc2c1 (stereo not given)	-2.7%	14	4.3	0%	3%	1%	1
CCCCNC(=O)CSc1nc2ccccc2c(=O)n1Cc1ccc2c(c1)OCO2	-0.1%	2	0.7	24%	14%	0%	-3

# Additional results
structure	ClpP mod	TRPV1 potentiator	Menin MLL FP FL	gsp antagonist	Sfp inh	gsp ag	CtBP-E1A inh
Cc1cc(N/N=C/c2ccc3c(c2)OCO3)nc2ccccc12	4.6%	-8	1.7	?	20µM*	9%	-5
CCOC(=O)c1sc2ncn(/N=C/N(C)C)c(=O)c2c1C	-18%	-4	4.0	4%	18%	-60%[inhibitor]	9
COc1ccc(N2C(=O)C3C4C=CC(CC4)C3C2=O)c([N+](=O)[O-])c1 (stereo not given)	-0.7%	-4	1.7	6%	13%	?	5
O=C(NN=Cc1ccc2c(c1)CCC2)c1ccccc1O	-11%	/	/	/	/	6%	-20
CC(=O)c1ccc(Oc2nc3c(c(=O)n(C)c(=O)n3C)n2C)cc1	-10%	-7	7.3	1%	-6%	7%[15.4 µM]	8
CCSc1cc(N2CCOCC2)nc(-c2ccccc2)n1	1.0%	-15	1.5	13%	-6%	-5%[15.4 µM]	-2

# High-throughput results (PubChem BioAssay)
